NPYLR7 ag: activates Aedes aegypti NPYLR7 receptor; HEK293T NPYLR7/Galpha15, GCaMP6s calcium fluorescence; activation, % at 10 µM; hit rate 0.15% among 270,000; AID 1259423; in the data active means activation above about 40%;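 further: 0% = vehicle and 100% = reference agonist at the receptor; some compounds past the cut are filed as inactive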
NPYLR7 ag max-min: second read-out of NPYLR7 ag, no call of its own (marks repeat the call); activation, %; measured here: Max-Min RFU normalised activation; some inactives read as strong as hits;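 span of the calcium signal over five minutes; 0% = vehicle and 100% = native peptide agonist; compound fluorescence can raise it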
Active calls of the source: *; & = joins results of further samples.

SMILES | NPYLR7 ag | NPYLR7 ag max-min
Cc1ccc(C(=O)Cn2cnc3sc4c(c3c2=O)CCC4)c(C)c1 | 16.1 | 16.7
CCc1ccc(N2C(=O)CSC2c2ccc(NS(=O)(=O)c3ccc(OC)cc3)cc2)cc1 (stereo unspecified) | 9.9 | 9.8
COCC(=O)Nc1ccc(-n2nc(OCC(C)C)nc2-c2ccc(C)cc2)cc1 | -2.5 | 0.9
CCCC(CCC)C(=O)NCCn1ncc2c(N3CCOCC3)nc(SCC)nc21 | 2.1 | 0.5
Cc1ccc(C2(O)CCN(C(=O)[C@H]3[C@@H]4C=C[C@@]5(CN(C)C(=O)[C@@H]35)O4)CC2)nc1 | 5.3 | 3.2
O=C(NC1CCCc2nc(N3CCC(CO)CC3)ncc21)c1ccccn1 (stereo unspecified) | 13.4 | 1.4
Cc1cc(C(=O)N(CCn2cccn2)c2nc3c(Cl)cccc3s2)on1 | -18.7 | -25.8
COCC1(C(=O)NCc2cccnc2Oc2ccccc2C)CCC1 | 1.7 | 18.5
CCCn1cc(C(=O)Nc2ccc(NC(C)=O)cc2)c2nn(-c3ccccc3)c(=O)c-2c1 | 4.4 | 2.9
CCN(CC)C(=O)CCC(=O)N1CCC(C)c2ccccc21 (stereo unspecified) | 6.4 | 5.3
Cc1ccc(-n2nc3c(c2NC(=O)c2ccc(OC(C)C)cc2)CS(=O)C3)cc1 (stereo unspecified) | 0.6 | -2.2
O=C(Cn1ccc2ccccc2c1=O)NCc1ccc(Cl)cc1 | 2.0 | -2.8
O=C(CCl)Nc1cccc(C2SCC(=O)N2c2ccc(C(F)(F)F)cc2)c1 (stereo unspecified) | 22.0 | 25.6
Cc1nc2ccccc2c(=O)n1C(C)C(=O)Nc1ccc(Cl)cc1F (stereo unspecified) | 1.4 | 1.9
Oc1c(C(c2ccccn2)N2CCN(c3ccccn3)CC2)ccc2cccnc12 (stereo unspecified) | 2.6 | 10.3
CCCc1nc(N2CCN(S(=O)(=O)c3ccc(OC)cc3)CC2)c2c3c(sc2n1)CN(CC)CC3 | 1.0 | 1.6
Cc1cc(C(=O)NC2CCN(Cc3ccccc3)CC2)nc2cc(-c3ccccc3)nn12 | 1.7 | 7.4
O=C1NC2(CCN(C(=O)COCc3ccccc3)CC2)Nc2ccc(Br)cc21 | 4.5 | 7.0
CCN(CC(=O)NCc1ccc(F)cc1)Cc1cc2c(cc1Br)OCCO2 | 1.3 | 0.1
CCC(=O)Nc1sc2c(c1-c1nc3ccccc3s1)CCCC2 | 0.3 | -0.1
COc1cccc(C(=O)Nc2nc3ncccc3cc2-c2ccccc2)c1OC | 2.5 | 8.1
CCCC(=O)N1CCCC1(C)C(=O)Nc1ccc(-n2cncn2)cc1 (stereo unspecified) | 4.3 | 0.1
Cc1nc2scc(C)n2c(=O)c1NC(=O)c1ccco1 | 13.6 | 1.8
CCN(CCCNC(=O)Cn1cnc2ccccc2c1=O)c1ccccc1 | -3.0 | -4.2
Cc1nc(N2CCC(n3cncn3)CC2)c2c3c(sc2n1)CCCC3 | 12.4 | 9.7
CC(C)c1ccc(-c2nc(NCCN3CCOCC3)nc3nn(C)c(N)c23)cc1 | 6.6 | 3.7
Cc1ccc(C(=O)N2CCC(CCC(=O)NCc3cccnc3)CC2)s1 | 6.8 | -0.7
COc1ccc(OC)c(C2C(C#N)=C(C)NC3=C2C(=O)CC(c2ccccc2)C3)c1 (stereo unspecified) | -2.7 | -7.6
COC(=O)c1cc(F)cc(OC)c1NC(=O)Cc1cccs1 | 10.0 | 8.8
Oc1cc2c(cc1O)C(c1ccccc1)CNCC2 (stereo unspecified) | -5.3&-0.5 | -11.0&-28.7
O=c1cccnn1CCNS(=O)(=O)c1ccc2c(c1)OCCO2 | -3.0 | -3.4
COCCNC(=O)C(NC(=O)c1ccccc1Cl)C1CCN(C(=O)c2cccs2)CC1 (stereo unspecified) | -4.3 | 2.0
CCCCn1c(N)c(N(CC(C)C)C(=O)CCCSc2nncs2)c(=O)[nH]c1=O | 11.0 | 6.1
COc1ccc(-c2cc(C(=O)NC(C)C)n(-c3ccccc3)n2)cc1 | -7.9 | -2.7
CC1C(=O)N(c2ccc(Cl)cc2Cl)CCN1C(=O)c1ccco1 (stereo unspecified) | -16.1 | -11.9
CCN(Cc1c(F)cccc1F)C(=O)c1ccc(S(N)(=O)=O)o1 | 5.5 | 4.6
CCN(CC)C(=O)c1sc(NC(=O)c2cc(OC)cc(OC)c2)c(C(=O)OC)c1C | -7.0 | -5.8
COCCN1CC(C(=O)NCCc2nc(-c3ccccc3)no2)CCC1=O (stereo unspecified) | 4.8 | 4.8
CCN(CC)CCN(C(=O)C1=COCCO1)c1nc2c(OC)ccc(Cl)c2s1 | 14.9 | 8.8
COc1ccc(Nc2ncccc2C(=O)N2CCC(n3c(=O)[nH]c4ccccc43)CC2)cc1 | -2.8 | -7.5
O=S(=O)(c1ccccc1)N1CCNCC1 | 3.8&-3.6 | 1.2&-4.2
O=C1CCCN2C(=N1)SC(=S)N2CN1CCN(c2ccccc2)CC1 | 0.1 | -1.3
COc1cccc(-n2nnc3c(=O)n(CC(=O)NC4CCCCC4)cnc32)c1 | 2.1 | 4.5
COC(=O)Cc1cc(=O)n(-c2ccc(OC(F)(F)F)cc2)[nH]1 | 1.7 | 1.2
Cc1ccc2cc(C3(O)CCN(C(=O)c4ccc5c(c4)OCO5)CC3)ccc2n1 | 9.5 | 8.1
CCN(CC)c1ccc2cc(C(=O)Nc3cccc(Cl)c3)c(=O)oc2c1 | 3.3 | 14.0
Cn1c(NCCN2CCCC2)nc2cc(-c3ccccc3)sc2c1=O | 7.4 | 3.0
CN(CC(=O)N(C)c1ccccc1)CC12CC3CC(CC(C3)C1)C2 | 10.9 | 12.5
C=Cc1ccc(S(=O)(=O)N2CCC(c3c[nH]c4ccc(OC)cc34)CC2)cc1 | 18.7 | 31.6
C=CCNC(=O)CSc1c(CC)cnc2c1c(=O)n(C)c(=O)n2C | 3.5 | 6.2
COCCCN(CC(=O)Nc1cc(C(C)(C)C)nn1-c1ccccc1Cl)C(=O)Nc1ccc(Br)cc1 | -0.6 | 0.1
c1ccc(-c2cc(-c3nnc(SCCC4CCCCC4)o3)c3ccccc3n2)cc1 | -4.6 | -10.6
CN(Cc1nc(-c2cnccn2)no1)CC(O)c1ccccc1 (stereo unspecified) | 2.7&-2.5 | 0.5&-4.3
CCCN(CC(=O)N(Cc1ccc(F)cc1)Cc1ccco1)C(=O)NC12CC3CC(CC(C3)C1)C2 | -13.1 | -6.4
O=C(c1cccc(F)c1)N1CCCC(OCc2ccccc2)C1 (stereo unspecified) | -5.2 | 1.4
COc1cccc2c(=O)n(CCN3CCNCC3)cnc12 | -3.4 | 2.1
CC(C)c1cccc(NC(=O)C2CCS(=O)(=O)C2)c1 (stereo unspecified) | -0.5 | -2.3
COC(OC)(OC)c1cc2ccccc2c(=O)[nH]1 | 8.1 | 7.3
COc1ccc(CN(C)Cc2nc(-c3cccc(Cl)c3)oc2C)cc1OC | 1.1 | -14.8
CN(C)CCSc1nnnn1-c1ccccc1 | 8.8 | 20.2
(further entries)
SMILES | NPYLR7 ag | NPYLR7 ag max-min
Cc1c(C(=O)NC2CC2)sc(=O)n1CCOc1ccc(F)cc1 | -6.0 | -7.9
Cc1ccc(CNC(=O)COc2coc(CN3CCN(c4ccccc4)CC3)cc2=O)cc1 | 0.5 | -0.5
COc1cc(C)ccc1OCCN1CCC2(CC1)c1ccccc1CC2O (stereo unspecified) | 1.6 | 0.6
CCC(C)N(CCC(=O)NCc1ccco1)c1nc(Cc2cccc(OC)c2)ns1 (stereo unspecified) | 4.7 | 5.4
CCOc1ccccc1CN1CCN(Cc2ccc(Oc3ncccn3)cc2)CC1CCO (stereo unspecified) | -2.6 | -4.3
O=c1c2cnc3nc(-c4ccncc4)nn3c2ccn1C1CCCCCC1 | 5.2 | 10.0
COc1cccc(C(=O)Nc2c(C)nc3sccn3c2=O)c1OC | 15.4 | 5.3
CC1Cc2nc(SCC(=O)NCc3ccccc3)n(C)c(=O)c2S1 (stereo unspecified) | -3.4 | -6.8
N=C1C(c2nc3ccccc3c(=O)[nH]2)C(=O)CN1c1ccccc1F (stereo unspecified) | 4.4 | -0.8
COc1ccc(NC(=O)NCCS(=O)(=O)c2c(C)n(Cc3ccc(F)cc3)c3ccccc23)cc1 | 3.9 | 6.4
C#CC1(OCC(O)CN2CCC(C(=O)OCC)CC2)CCCCC1 (stereo unspecified) | 0.8 | 24.7
CC(C)(C)OC(=O)N1CCC(C(=O)O)CC1 | -8.9 | -12.7
CS(=O)(=O)NCC1CCN(C2CSCCSC2)C1 (stereo unspecified) | 0.9 | 0.9
Cn1c(=NC(=O)c2cc(Cl)sc2Cl)sc2cc(F)ccc21 | 0.8 | 4.0
COc1ccc(OCCCn2c(CN(C)C(=O)c3ccco3)nc3ccccc32)cc1 | -9.6 | -12.1
CC1CCN(C(CNC(=O)N2CCC(C#N)CC2)c2ccccc2)CC1 (stereo unspecified) | 5.4 | 2.6
CC(C)n1ncc2cc(N)cnc21 | 3.2 | 3.3
OCC1(CC2CCCCO2)CCNCC1 (stereo unspecified) | 1.3 | 1.7
COc1ccc(CNC(=O)COc2ccc(C)c3c2C(=O)CC3C)cc1OC (stereo unspecified) | 17.1 | 10.9
Cc1ccc(CN(C(=O)c2cc3cc(Cl)ccc3[nH]2)C(C)C)o1 | 118.4* | 95.3*
O=C1c2cc(Cl)c(Cl)cc2C(=O)N1CNc1cccc(Cl)c1Cl | -10.2 | -16.4
CC(Nc1ccc2nnnn2n1)c1ccc(Cl)cc1Cl (stereo unspecified) | 2.8 | -0.6
COCc1nc(-c2ccccc2)nc(N2CCN(C(=O)N(C)C)CC2)c1Cc1cccc(Cl)c1 | 6.6 | 16.2
CCOC(=O)c1cc(C#N)c(SCC(=O)O)[nH]c1=O | 5.3 | 4.4
O=C1CCCc2c1nc(-c1ccccc1)n2O | 24.6 | 15.8
CCc1ccc(C(=O)N2CCCSC2=NCC(C)C)cc1 | 2.9 | 2.9
CCN(Cc1nc(COC)no1)C(=O)c1ccc(Cl)s1 | -4.0 | -9.9
O=C(c1c(F)cccc1Cl)N1CC(c2ccncc2)C1 | -0.6 | -1.1
CCc1ncc(C(=O)NCCc2c(C)nn(CC)c2C)cn1 | 13.9 | 7.0
O=C(c1ccccc1Cc1ccc(Cl)cc1)N1CCOC(C(F)(F)F)C1 (stereo unspecified) | 5.5 | 3.9
CCOP(=O)(NC(NNC(=S)Nc1ccccc1)(C(F)(F)F)C(F)(F)F)OCC | -8.0 | -14.5
OC(CSc1nc2n(n1)CNc1ccccc1-2)c1ccccc1 (stereo unspecified) | 3.9 | 10.1
COC(=O)c1ccc(CN2CCCC(C(=O)c3ccc(OC)c(F)c3)C2)cc1 (stereo unspecified) | 8.1 | 7.7
CN1C(=O)C2(NC(CCC(=O)O)C3C(=O)N(c4ccccc4)C(=O)C32)c2ccccc21 (stereo unspecified) | -4.3 | -6.7
O=C(NCC1CCCN(S(=O)(=O)c2ccsc2)C1)c1ccco1 (stereo unspecified) | -0.1&-0.3 | -3.2&-3.8
Cc1oc(-c2ccccc2)nc1CN1CC(C(N)=O)CCC1C (stereo unspecified) | -4.3 | -2.7
Cc1nc(-c2cccs2)c(CC(=O)O)s1 | 0.8 | 7.1
Cc1cccc(C(=O)N(Cc2cc(NC(=O)c3cccc(F)c3)ccc2N(C)C)C(C)c2ccccc2)c1 (stereo unspecified) | 20.0 | 15.3
CCC(CO)Nc1nc(C)nc2sc3c(c12)CCCC3 (stereo unspecified) | 1.0 | 0.7
COc1cccc(-c2cc3c(Nc4cccc(O)c4)nccc3[nH]2)c1 | 11.5 | -2.2

One compound at a time, as listed above.
COCc1nc(-c2ccccc2)nc(N2CCN(C(=O)N(C)C)CC2)c1Cc1cccc(Cl)c1 in the list: NPYLR7 ag: 6.6; NPYLR7 ag max-min: 16.2
Cc1oc(-c2ccccc2)nc1CN1CC(C(N)=O)CCC1C (stereo unspecified) in the list: NPYLR7 ag: -4.3; NPYLR7 ag max-min: -2.7
CCN(Cc1nc(COC)no1)C(=O)c1ccc(Cl)s1 in the list: NPYLR7 ag: -4.0; NPYLR7 ag max-min: -9.9

More entries follow:
SMILES | NPYLR7 ag | NPYLR7 ag max-min
CC(=O)Nc1cc(NC(=O)NCc2scnc2C)c(F)cc1F | -10.2 | -13.3
CCSc1ccc(NC(=O)NCc2ccncc2)cn1 | 3.7 | 1.6
Cc1cccc(N2CCN(S(=O)(=O)c3nn(Cc4ccccn4)cc3C(=O)O)CC2)c1 | -9.1 | -9.6
Cc1c(C(=O)NCc2ccc(C(C)C)cc2)sc(=O)n1Cc1ccccc1F | 1.4 | -1.8
O=C(C1CC1)N1CCCC(N2CCN(CCOc3ccccc3)CC2)C1 (stereo unspecified) | 3.1 | 3.7
Cc1nc(C(C#N)=Cc2ccco2)sc1-c1ccccc1 | 1.7 | -1.0
CC(C)CCNC(=O)c1cccnc1N1CCCC1 | 12.9 | 2.7
CCOC(=O)C1(CCc2ccccc2)CCN(Cc2cc(CC(C)C)n[nH]2)CC1 | 8.3 | 5.0

Part of the list above, tab-delimited:
Molecule	NPYLR7 ag	NPYLR7 ag max-min
CC(=O)Nc1cc(NC(=O)NCc2scnc2C)c(F)cc1F	-10.2	-13.3
Cc1cccc(N2CCN(S(=O)(=O)c3nn(Cc4ccccn4)cc3C(=O)O)CC2)c1	-9.1	-9.6
CC(C)CCNC(=O)c1cccnc1N1CCCC1	12.9	2.7
Cc1c(C(=O)NCc2ccc(C(C)C)cc2)sc(=O)n1Cc1ccccc1F	1.4	-1.8
CCOC(=O)C1(CCc2ccccc2)CCN(Cc2cc(CC(C)C)n[nH]2)CC1	8.3	5.0
Cc1nc(C(C#N)=Cc2ccco2)sc1-c1ccccc1	1.7	-1.0

Bioassay records (PubChem BioAssay)

A portion of the library; the hit share may differ from the screen's.
